# Assay outcomes (PubChem BioAssay)
# NS1 inh: influenza NS1 inhibition; hit rate 0.4% among 270,000; Potency, µM (highest dose often 46.1 µM), for the others: at the highest dose activity, positive = more growth; S. cerevisiae slowed by influenza A NS1, growth recovery by OD600; AID 2326; note: actives are rising curves; nearly all actives have a fitted effect of over 50% in size
#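 Recovery from NS1-induced slow growth read by OD600 in budding yeast switched to galactose assay medium (pH 6.0, -URA) at 1:100 dilution. Compound 23 nl per well; the matching strain lacking NS1 serves as control.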
# Cruzain noTriton: inhibitors of Trypanosoma cruzi cruzain without detergent; purified cruzain, Z-FR-AMC fluorescence, no detergent; Potency, µM, for inactives: max response, negative = inhibition, usual class: inhibitors; hit rate 2.3% among 200,000; AID 1476; active = well fitted curve in the direction sought with a large enough effect; inconclusive = small, poorly fitted or top-dose-only effect, or another doubt; inactive = no such curve, though single readings can be large; an effect the other way counts as inactive or inconclusive;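 note: plate controls were enzyme without inhibitor for no effect and buffer without enzyme for full effect; nearly all actives have a fitted effect of over 40% in size; top concentration of the series not given in the record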
# Target sequence (P25779 123-467 limits assumed): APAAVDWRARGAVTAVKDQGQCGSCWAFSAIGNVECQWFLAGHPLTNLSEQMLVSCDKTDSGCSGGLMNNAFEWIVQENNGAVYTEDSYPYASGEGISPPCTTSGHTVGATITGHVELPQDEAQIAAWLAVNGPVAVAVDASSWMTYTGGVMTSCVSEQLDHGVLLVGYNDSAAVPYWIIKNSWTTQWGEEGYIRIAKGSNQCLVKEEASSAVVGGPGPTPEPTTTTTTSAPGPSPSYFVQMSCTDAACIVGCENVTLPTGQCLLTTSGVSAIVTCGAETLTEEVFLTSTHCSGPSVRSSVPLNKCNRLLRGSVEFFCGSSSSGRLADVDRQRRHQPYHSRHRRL
#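 Detergent-free condition (0.00005% Triton X-100) in acetate buffer pH 5.5 with DTT. 1.5 nM enzyme and compound were pre-mixed 15 min, then 2 uM Z-FR-AMC substrate added; reaction progress from fluorescence change between first and third reads (60 s).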
# StopGo reporter: lowers the luciferase signal of an FMDV 2A StopGo reporter; human cells with a luciferase reporter of 2A StopGo recoding; control for the full effect not named in the record; Potency, µM (series often up to 57.9 µM), for the others: top-dose signal change, negative = less light; hit rate 1.2% among 410,000; active = well fitted falling curve with a large enough effect; inconclusive = small, poorly fitted or top-dose-only effect; inactive = no such curve, though single readings can be large or run the other way; tested in HEK293T cells; note: % is set by controls: 0 for no effect and ±100 for the full control effect; nearly all actives have a fitted effect of over 45% in size; luciferase light after 4 h
# SARS PLP yeast: inhibitors of SARS-CoV papain-like protease in yeast; S. cerevisiae expressing SARS-CoV PLpro, growth rescue; control for the full effect not named in the record; Potency, µM (series often up to 32.9 µM), inactives show top-dose activity, positive = growth rescue; hit rate 0.19% among 330,000; AID 485353; note: 0% is about no effect; nearly all actives have a fitted effect of over 55% in size; growth read by luminescence after 48 h
# RE007 growth inh: less growth of the S. pombe RE007 Vpr strain. S. pombe RE007 Vpr strain, BacTiter-Glo ATP luminescence, 24 h; control for the full effect not named in the record. Potency, µM (titrated, usually from 92.2 µM), inactives show at the highest dose activity change, negative = less growth. hit rate 0.21% among 360,000; active = well fitted falling curve with a large enough effect; inconclusive = small, poorly fitted or top-dose-only effect; inactive = no such curve, though single readings can be large or run the other way;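 note: % is set by controls: 0 for no effect and ±100 for the full control effect; nearly all actives have a fitted effect of over 50% in size; the assay follows cell death caused by Vpr and the record does not say whether a fall means rescue or toxicity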
#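 Fission yeast RE007 carrying one integrated HIV-1 vpr copy, seeded at OD 0.01 in PMG+AL medium with 23 nL pinned compound. Grown 24 h at 30 degrees; viability read by BacTiter-Glo luminescence after 5 min.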
# LASV entry inh: inhibitors of Lassa virus binding or cell entry | AID 540256 | Potency, µM (series often up to 37.9 µM), inactives show at the highest dose activity change, negative = inhibition, most hits filed as inhibitors | hit rate 1.2% among 300,000 | Lassa virus pseudotype entry inhibition, cell reporter; control for the full effect not named in the record; active means well fitted inhibition curve with a large enough effect; inconclusive means small, poorly fitted or top-dose-only effect, or effect the other way; inactive means flat fitted curve, though single readings scatter; tested in HEK293 cells; note: % is set by controls: 0 for no effect and ±100 for the full control effect; nearly all actives have a fitted effect of over 50% in size; luciferase read-out
# Cruzain inh Det: cruzain (T. cruzi) inhibition with detergent; purified cruzain, Z-FR-AMC fluorescence, 0.01% Triton; hit rate 0.43% among 200,000; P25779; Potency, µM, for inactives: max response, negative = inhibition, hits mostly inhibitors; AID 1478; active = well fitted curve in the direction sought with a large enough effect; inconclusive = small, poorly fitted or top-dose-only effect, or another doubt; inactive = no such curve, though single readings can be large; an effect the other way counts as inactive or inconclusive;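 note: plate controls were neutral wells for no effect and buffer without enzyme for full effect; nearly all actives have a fitted effect of over 40% in size; top concentration of the series not given in the record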
#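 Sodium acetate buffer (100 mM, pH 5.5) containing 5 mM DTT and 0.01% Triton X-100 hosted 1.5 nM cruzain and test compound for 15 min at room temperature. Cleavage of 2 uM Z-FR-AMC was then tracked by fluorescence.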
# Marburg entry inh: Marburg virus entry inhibition; Potency, µM (series often up to 37.8 µM), without a hit: at the highest dose activity change, negative = inhibition, hits mostly inhibitors; Marburg virus pseudotyped entry inhibition, cell reporter; control for the full effect not named in the record; about a third of the inactives were read at about 46 µM; hit rate 1.8% among 300,000; AID 540276; active = well fitted inhibition curve with a large enough effect; inconclusive = small, poorly fitted or top-dose-only effect, or effect the other way; inactive = flat fitted curve, though single readings scatter; tested in HEK293 cells; about a fifth of its hits are not listed in these tables; note: % is set by controls: 0 for no effect and ±100 for the full control effect; luciferase read-out
# The depositor's hits bear a star; ? = inconclusive; nt = not tested or not shown; & = joins results of further samples; [ ] = remark or other dose. Unless noted, calls come from the whole dose curve; as a rule, active means well fitted rising curve with a large enough effect; inconclusive means small, poorly fitted or top-dose-only effect; inactive means no such curve, though single readings can be large or run the other way. Potency is the fitted concentration of half-maximal effect. The order is random; any-hit rate near 4.7%.
# Sequence of screens: NS1 inh	Cruzain noTriton	StopGo reporter	SARS PLP yeast	RE007 growth inh	LASV entry inh	Cruzain inh Det	Marburg entry inh
- O=C(Cc1ccc(NC2=NC3CS(=O)(=O)CC3S2)cc1)NCc1ccccc1 (stereo unspecified)
    1%	nt	-12%	-10%	-9%	nt	nt	nt
- COc1ccccc1NS(=O)(=O)c1cc(NC(=O)c2cc[n+]([O-])cc2)ccc1N1CCCC1
    nt	nt	21%	2%	-8%	-16%	nt	-22%[46.1 µM]
- CCOc1ccc(NC(=O)NNC(=O)c2ccc(CC)s2)cc1
    3%	nt	-13%	1%	0%	13%	nt	?
- COc1cccc(N2CCN(C3CC(=O)N(c4ccc(F)c(Cl)c4)C3=O)CC2)c1 (stereo unspecified)
    -5%	7%	-11%	-39%	28µM*	-2%	-4.1%	3%[46.1 µM]
- CCOC(=O)c1[nH]cnc1C(=O)Nc1ccc(Cl)cc1
    1%	nt	-8%	0%	2%	nt	nt	nt
- COC(=O)Nc1ccc2c(c1)OCO2
    14%	?	0%	0%	5%	5%	0.8%	-3%
- Cc1ccc(CN2CCc3[nH]c(=O)[nH]c(=O)c3C2)cc1
    0%	nt	-10%	1%	-6%	nt	nt	nt
- COc1cc(NC(=O)c2cccnc2SC)cc(OC)c1
    -1%	nt	5%	-1%	1%	nt	nt	-6%[46.1 µM]
- Cc1cccc(NC(=O)C2CCN(S(=O)(=O)c3ccc4c(c3)C(C)(C)C(=O)N4C)CC2)c1C
    5%	nt	-20%	1%	-19%	nt	nt	nt
- CN(CCO)c1ccc(-c2nn(C)c(=O)c3ccccc23)cc1[N+](=O)[O-]
    -1%	nt	-21%	0%	2%	nt	nt	nt
- COc1ccc(NC(=O)Cn2nc(C)c3ccccc3c2=O)cc1
    13%	nt	-7%	?	4%	nt	nt	nt
- Cc1c(N=Cc2c(O)n(CCc3ccccc3)c(=O)[nH]c2=O)c(=O)n(-c2ccccc2)n1C
    -12%	?	?	5%	6%	-22%	-5.8%	-3%&-3%&-3%
- CC(C)Sc1nc(N2CCOCC2)c2c(c1C#N)CC(C)(C)SC2
    -35%	-8%	?	5%	-5%	-6%	-8.7%	?
- COc1cc(/C=N/NC(=O)c2cc3ccccc3[nH]2)ccc1O
    5%	nt	-2%	15%	-4%	nt	nt	nt
- COC(=O)N=Nc1c(O)n(Cc2ccccc2)c2ccccc12
    2%	nt	0%	-1%	7%	-12%	nt	0%
- COc1ccccc1-c1cc2nc(C)cc(C)n2n1
    -4%	nt	37%[activator]	0%	-15%	8%	nt	5%[46.1 µM]
- O=C(Cc1csc(Nc2nc(=S)[nH]c3ccccc23)n1)N1CCN(c2cccc(Cl)c2)CC1
    3%	nt	-22%	6%	-11%	nt	nt	?
- O=C(CS(=O)CC(=O)N(CC(=O)NC1CCCC1)C1CCCC1)Nc1ccc(F)cc1 (stereo unspecified)
    1%	3%	13%	-1%	7%	14%	3.1%	17%
- O=C(NC(=S)Nc1nc(-c2ccc(Br)cc2)cs1)c1ccco1
    nt	nt	-11%	-2%	8%	28%[46.1 µM]	nt	?
- COC(=O)c1cc2sccc2n1Cc1ccc(F)cc1Cl
    nt	-8%	-21%	nt	nt	nt	-7.3%	-5%[46.1 µM]
- COc1ccccc1N1C(=O)C=C(Sc2nc(C)cc(C)n2)C1=O
    11%	nt	?	0%	9%	13%	nt	-23%[46.1 µM]
- CCc1cc(C(=O)N2CCCC(CCC(=O)NCc3cccc(OC)c3)C2)no1 (stereo unspecified)
    -2%	nt	13%	0%	-6%	4%[46.1 µM]	nt	-16%
- CCOC(=O)c1cc(-c2ccc(C)cc2)n(CCC(=O)Nc2cc(Cl)ccc2C)c1C
    nt	-2%	-1%	nt	nt	nt	1.2%	?
- Cn1ncc(Br)c1C(=O)O
    nt	nt	-17%	3%	0%	12%[46.1 µM]	nt	-3%[46.1 µM]
- CCCCN1CC(O)=C(c2nc(-c3ccc(Br)cc3)cs2)C1=N
    0%	nt	19%	1%	294%	1%	nt	-11%
- CCOc1ccc(N(CC(=O)NC(C)CC)S(C)(=O)=O)cc1 (stereo unspecified)
    -2%	-10%	-18%	5%	-7%	-8%	3.0%	25%
- CN1CCN(c2nc(NCc3ccco3)nc(N)c2[N+](=O)[O-])CC1
    5%	nt	1%	-1%	-1%	10%	nt	1%[46.1 µM]
- N=c1ccn(Cc2cccc(Cl)c2)cc1
    1%	-4%	?	5%	-19%	?	-0.8%	?
- CCCc1cc(C(=O)Cc2nc3ccccc3s2)c(O)cc1O
    10%	-20%	13%	5%	1%	10%	-10%	14%
- Cc1ccccc1N1CCN(C(=O)CN2C(=O)c3ccccc3C2=O)CC1
    -9%	1%	nt	6%	13%	19%	-2.8%	27%

# The results go on.
SMILES | NS1 inh | Cruzain noTriton | StopGo reporter | SARS PLP yeast | RE007 growth inh | LASV entry inh | Cruzain inh Det | Marburg entry inh
O=C(NCc1ccco1)c1ccc(CNc2c(N3CCCCC3)c(=O)c2=O)cc1 | -4% | -3% | -18% | 2% | -12% | 0% | -0.2% | -27%
Cc1noc(C)c1CSc1nnc(-c2cc(Cl)ccc2Cl)n1N | 3% | -2% | ? | -8% | -3% | 18% | 2.8% | 4%
COc1ccc(CNC(=O)CN2C(=O)CC(c3ccccc3)=Nc3ccccc32)cc1 | -3% | nt | -8% | -1% | -2% | -6% | nt | -1%
CC(C)(C)c1nnc(NC(=S)Nc2ccccc2)s1 | -5% | nt | 24% | 0% | -12% | ? | nt | ?
O=C(O)c1cnn(-c2ccccc2)c1-c1ccccc1 | 12% | 3% | -23% | 9% | 8% | 9% | 5.9% | 23%
CCn1c(SCc2ccc(C)cc2)nnc1-c1cnccn1 | -50% | 2% | 24% | -5% | 17% | 7% | 5.4% | 1%
c1ccc(Cn2nnc3c(Nc4ccc5c(c4)OCO5)nc(C4CC4)nc32)cc1 | 11% | 16µM* | ? | -4% | 7% | ? | -2.1% | ?
Cc1cc(C)cc(-n2c(SCC(=O)NCc3ccc4c(c3)OCO4)nc3ccccc3c2=O)c1 | 4% | ? | -10% | 4% | 7% | 6% | -1.8% | nt
Cc1cc(C)nc(SCc2nnc(SCc3ccc([N+](=O)[O-])cc3)n2Cc2ccco2)n1 | 1% | -6% | -8% | -2% | -8% | -15% | -4.4% | ?
CC(=O)Nc1ccc(S(=O)(=O)NCCCc2ccccc2)cc1 | -6% | nt | -5% | 0% | -1% | -13% | nt | ?

# Two entries drawn at random from the list so far, as already listed:
SMILES | NS1 inh | Cruzain noTriton | StopGo reporter | SARS PLP yeast | RE007 growth inh | LASV entry inh | Cruzain inh Det | Marburg entry inh
CCn1c(SCc2ccc(C)cc2)nnc1-c1cnccn1 | -50% | 2% | 24% | -5% | 17% | 7% | 5.4% | 1%
Cc1cc(C)cc(-n2c(SCC(=O)NCc3ccc4c(c3)OCO4)nc3ccccc3c2=O)c1 | 4% | ? | -10% | 4% | 7% | 6% | -1.8% | nt

# Returning to the listing; the 4 compounds before the break are reprinted first.
SMILES | NS1 inh | Cruzain noTriton | StopGo reporter | SARS PLP yeast | RE007 growth inh | LASV entry inh | Cruzain inh Det | Marburg entry inh
c1ccc(Cn2nnc3c(Nc4ccc5c(c4)OCO5)nc(C4CC4)nc32)cc1 | 11% | 16µM* | ? | -4% | 7% | ? | -2.1% | ?
Cc1cc(C)cc(-n2c(SCC(=O)NCc3ccc4c(c3)OCO4)nc3ccccc3c2=O)c1 | 4% | ? | -10% | 4% | 7% | 6% | -1.8% | nt
Cc1cc(C)nc(SCc2nnc(SCc3ccc([N+](=O)[O-])cc3)n2Cc2ccco2)n1 | 1% | -6% | -8% | -2% | -8% | -15% | -4.4% | ?
CC(=O)Nc1ccc(S(=O)(=O)NCCCc2ccccc2)cc1 | -6% | nt | -5% | 0% | -1% | -13% | nt | ?
Cc1ccccc1-n1c(-c2ccoc2)nc2ccccc2c1=O | -6% | nt | ? | -2% | 0% | -1% | nt | -25%[46.1 µM]
CCOc1ccnc2c1c(=O)n(Cc1cc(OC)cc(OC)c1)c(=O)n2C | 5% | nt | -22% | -1% | 14% | nt | nt | nt
Cc1ccc(F)c(CNC(=O)C2CCC(=O)N(CCCN3CCCC3=O)C2)c1F (stereo unspecified) | 10% | nt | 6% | 6% | -2% | nt | nt | nt
CC(C)c1ccc(O)c(C(=O)c2cnn(-c3ccccc3)c2)c1 | nt | nt | -6% | nt | 0% | 1% | nt | ?
COc1cccc(-c2nc3cc(C)ccc3o2)c1 | -15% | 11% | -63% | 1% | -16% | ? | -1.9% | 6.3µM*
CCCNC(=O)Cn1c(=O)cc(C)c2c(C)nn(-c3cccc(F)c3)c21 | nt | 0% | -13% | nt | nt | 18%[46.1 µM] | -0.3% | nt
N#CC1=C2SCCN2C(=O)C(C#N)C12CCCCC2 (stereo unspecified) | -15% | 3% | -7% | -4% | 15% | -15% | 1.1% | 9%
CCn1ncc(Cl)c1C(=O)Nc1ccncc1 | -9% | 7% | 18% | 0% | -6% | 10% | 4.0% | 6%
Cc1nc2ccccc2c(=O)n1-c1ccc(NS(=O)(=O)c2ccc(F)cc2F)cc1 | nt | nt | -19% | 1% | -2% | -1% | nt | 23%
COc1ccc2c(c1OC)C(=O)N(C(C)C(=O)O)C2=O (stereo unspecified) | 5% | 2% | nt | -5% | 4% | 16% | 1.7% | -4%
CCC1CN(C(=O)Nc2ccccc2F)c2cc(C)ccc2O1 (stereo unspecified) | nt | 11% | -17% | nt | nt | -9%[46.1 µM] | -2.9% | nt
CCOC(=O)C1CCN(/C=C2/C(=O)NC(=O)N(Cc3ccco3)C2=O)CC1 | 14% | 2% | -29% | 7% | 2% | 28% | 4.6% | -12%
